From PubChem
PD-1 reverse act = activators reversing PD-1 mediated T-cell inhibition | primary human CD4 T cells, PD-L1 beads, CellTiter-Glo 96 h | activation, % (concentration not given with the values) | 29,000 tested, under 10 active;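 active = replicate mean of 50% or more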;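 note: 0% = median vehicle wells and 100% = positive control; 100 nL library stock added to about 50 µL; numbers are from one replicate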
MITF inh = MITF inhibition | TRPM1 promoter luciferase, luminescence, 24 h | hit rate 0.28% among 37,000 | inhibition, % (no concentration beside the values) | AID 2240;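 active = most replicates at 85% or more, or half of them and the mean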;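 note: human melanocyte line stably carrying TRPM1 promoter luciferase reporter; 0% = vehicle wells and 100% = a positive control; the first replicate is given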
YB-1 expression = YB-1 expression inhibition; delta delta Cp (YB-1 minus CDIP) (concentration not given with the values); U2OS, qRT-PCR YB-1 vs CDIP delta delta Cp, 16 h; active compounds read high; zero = DMSO, each unit about twofold; hit rate 0.37% among 30,000; AID 434959;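 active = delta delta Cp rounded down to an integer at or above 3, about 3 SD of DMSO wells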;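 note: higher means less YB-1 transcript or more CDIP transcript relative to DMSO; stock transfer was 100 nL into about 100 µL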
Hedgehog inh = Sonic Hedgehog pathway inhibition; Shh-LIGHT2 Gli-luciferase reporter, 30 h; inhibition, % (test concentration not listed); hit rate 2.1% among 22,000; AID 2313;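 active = replicate mean of 65% or more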;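 note: pathway switched on by Shh-conditioned medium diluted 1 in 25 in low serum; 100 nL library stock added to about 40 µL; 0% = median of neutral wells and 100% = positive control level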
Active calls of the source: *; . = no result given. The list is partial, so the mix of outcomes need not match the whole.

Every second line gives: PD-1 reverse act | MITF inh | YB-1 expression | Hedgehog inh
Cc1c(NC(=O)CN(c2cccc(Cl)c2Cl)S(C)(=O)=O)cccc1[N+](=O)[O-]
    -1.8 | -13 | . | .
COc1ccc(CN(C)C[C@H]2Oc3c(NC(=O)Nc4ccccc4)cccc3C(=O)N([C@@H](C)CO)C[C@@H]2C)cc1
    -0.4 | -3 | 0.39 | -14
Cc1noc(C)c1NC(=O)Nc1ccc2c(c1)C(=O)N([C@H](C)CO)C[C@H](C)[C@@H](CN(C)C(=O)Nc1ccccc1)O2
    1.0 | 2 | -0.14 | -9
Cc1cc(C)n2nc(SCC(=O)Nc3cccc([N+](=O)[O-])c3)nc2n1
    0.8 | 7 | . | .
CC(C)NC(=O)Nc1cccc2c1O[C@@H](CN(C)C(=O)NC1CCCCC1)[C@@H](C)CN([C@H](C)CO)C2=O
    0.7 | 10 | -0.43 | 26
C[C@H]1CN([C@@H](C)CO)C(=O)Cc2cc(NS(=O)(=O)c3cccs3)ccc2O[C@H]1CN(C)C
    . | 3 | 0.12 | -11
COc1ccc(S(=O)(=O)Nc2ccc3c(c2)C(=O)N([C@H](C)CO)C[C@H](C)[C@@H](CN(C)Cc2ccncc2)OCCCC[C@@H](C)O3)cc1
    0.4 | 6 | 0.0039 | -17
C[C@H](CO)N1C[C@H](C)[C@@H](CN(C)C(=O)NC2CCCCC2)Oc2ccc(NC(=O)Nc3ccc(F)cc3)cc2C1=O
    0.4 | -5 | -0.041 | -15
Cc1c(Cl)cccc1NC(=O)CNC(=O)c1ccco1
    0.9 | -22 | . | .
C[C@H](CO)N1C[C@H](C)[C@H](CN(C)C(=O)Nc2ccc(C(F)(F)F)cc2)Oc2ccc(NC(=O)Nc3ccc(F)cc3)cc2CC1=O
    . | -5 | 0.12 | 7
Cn1c(SCC(=O)c2cccc([N+](=O)[O-])c2)nnc1-c1ccco1
    -0.6 | -15 | . | .
C[C@H](CO)N1C[C@H](C)[C@H](CN(C)Cc2ccc(C(=O)Nc3ccccc3N)cc2)Oc2ccc(NC(=O)Nc3ccc(C(F)(F)F)cc3)cc2CC1=O
    -3.3 | 17 | -0.15 | .
CN(CC(=O)Nc1ccc(C(=O)O)cc1)S(=O)(=O)c1ccccc1
    -0.1 | -7 | . | .
COc1ccc(C(=O)CC2(O)C(=O)N(Cc3ccc(Cl)c(Cl)c3)c3ccccc32)cc1OC (stereo not drawn)
    0.8 | 17 | . | .
CC(C)(C)C1CCc2c(sc(NC(=O)CSc3nnnn3-c3ccccc3)c2C#N)C1 (stereo not drawn)
    -2.6 | 4 | . | .
COc1cccc(NC(=O)Cn2cc(C(=O)C(C)(C)C)c3ccccc32)c1
    -1.1 | 37 | . | .
Cc1noc(C)c1NC(=O)Nc1cccc2c1O[C@@H](CN(C)C(=O)Nc1ccccc1)[C@@H](C)CN([C@@H](C)CO)C2=O
    1.1 | -8 | -0.3 | 24
C[C@H](CO)N1C[C@H](C)[C@@H](CN(C)C(=O)NC2CCCCC2)Oc2ccc(NC(=O)Nc3ccc4c(c3)OCO4)cc2C1=O
    0.9 | 4 | -0.011 | .
Cc1cc(C(=O)Nc2cccc3c2O[C@H](CN(C)Cc2ccc(Cl)c(Cl)c2)[C@H](C)CN([C@@H](C)CO)C3=O)n(C)n1
    -2.8 | -12 | 0.02 | 2
C/C=C(\C)C(=O)OC(C)(C)C1Cc2cc3ccc(=O)oc3cc2O1 (stereo not drawn)
    1.3 | 11 | -0.59 | 7
COc1ccc(/C=C2/C(=O)C(C(C)C)=CCC2C)cc1 (stereo not drawn)
    1.0 | -41 | -0.019 | .
CC(C)NC(=O)Nc1ccc2c(c1)CC(=O)N([C@@H](C)CO)C[C@H](C)[C@H](CN(C)C)O2
    0.1 | 13 | -0.55 | -38
CSc1ccccc1NC(=O)CN(c1ccc(Cl)cc1)S(C)(=O)=O
    1.8 | -12 | . | .
O=c1c2ccccc2c(C=Nc2cccc(C(F)(F)F)c2)c(O)n1-c1ccccc1
    -0.5 | -3 | -0.12 | 4
Cn1c(SCC(=O)NC2CCCCCC2)nnc1-c1ccco1
    3.7 | 0 | . | .
C[C@@H]1CN([C@@H](C)CO)C(=O)c2cc(NC(=O)Nc3cccc4ccccc34)ccc2O[C@H]1CN(C)S(C)(=O)=O
    0.9 | 9 | 0.3 | -18
CCCCC/C=C/C(=O)CCc1ccc(O)c(OC)c1
    -0.2 | 2 | 0.22 | -28
COc1ccc(NC(=O)N(C)C[C@H]2Oc3c(NS(=O)(=O)c4ccc(OC)cc4)cccc3C(=O)N([C@@H](C)CO)C[C@@H]2C)cc1
    0.7 | -9 | -0.049 | -21
C=CCn1c(SCC(N)=O)nnc1-c1ccc(Br)cc1
    0.3 | -25 | . | .
COc1ccc(NC(=O)Nc2cccc3c2O[C@@H](CN(C)C)[C@@H](C)CN([C@H](C)CO)C3=O)cc1
    0.4 | -9 | 0.43 | -11
Cc1cc(C)c(C(=O)Nc2ccc(S(=O)(=O)Nc3cc(C)nc(C)n3)cc2)c(C)c1
    3.6 | -7 | . | .
N#CC(=C1SCCCS1)S(=O)(=O)c1cccs1
    1.3 | -13 | -1.1 | 18
Cc1nnc(SCC(=O)n2c3c(c4ccccc42)CC(C)CC3)s1 (stereo not drawn)
    0.7 | -28 | . | .
COc1ccc(S(=O)(=O)N(C)C[C@H]2Oc3ccc(NS(=O)(=O)c4ccc(Cl)cc4)cc3CC(=O)N([C@H](C)CO)C[C@H]2C)cc1
    0.1 | -12 | 0.69 | -12
C[C@@H]1CN([C@H](C)CO)C(=O)c2cccc(NS(=O)(=O)c3ccc(F)cc3)c2O[C@@H]1CN(C)CC1CC1
    1.3 | -3 | 0.23 | -78
Cc1noc(C)c1NC(=O)Nc1cccc2c1O[C@H](CN(C)C(=O)Nc1ccc3c(c1)OCO3)[C@H](C)CN([C@@H](C)CO)C2=O
    . | 7 | -0.82 | -6
O=C(NCc1ccco1)c1cc2cc(Br)ccc2oc1=O
    2.1 | -8 | . | .
C[C@H](CO)N1C[C@H](C)[C@H](CN(C)C)Oc2ccc(NC(=O)Nc3ccc(C(F)(F)F)cc3)cc2CC1=O
    . | 1 | -0.66 | .
O=C(Cn1ccc([N+](=O)[O-])n1)Nc1cc(Cl)cc(Cl)c1
    -1.1 | -4 | . | .
S=c1nc[nH]c2c1nnn2Cc1ccccc1Cl
    0.6 | 16 | -0.21 | -7
C[C@H](CO)N1C[C@H](C)[C@H](CN(C)S(=O)(=O)c2ccc(Cl)cc2)Oc2c(NC(=O)Nc3ccc(F)cc3)cccc2C1=O
    -3.3 | 65 | -0.53 | 117*
Cc1ccc(S(=O)(=O)N(C)C[C@H]2Oc3ccc(NC(=O)Cc4cn(C)c5ccccc45)cc3C(=O)N([C@H](C)CO)C[C@@H]2C)cc1
    -1.7 | 34 | -0.11 | .
Cc1cc2c(=O)n(Cc3ccco3)c(SCC(=O)N3CCc4ccccc43)nc2s1
    -0.2 | 16 | . | .
CS(=O)(=O)c1scc(-c2cccs2)c1C#N
    -0.9 | -9 | -0.066 | .
Cc1ccc(S(=O)(=O)Nc2ccc3c(c2)CC(=O)N([C@@H](C)CO)C[C@@H](C)[C@@H](CN(C)Cc2ccc(-c4ccccc4)cc2)O3)cc1
    -3.1 | 49 | 0.21 | 26
C[C@@H]1CCCCO[C@H](CN(C)C)[C@@H](C)CN([C@H](C)CO)C(=O)c2cc(NS(=O)(=O)c3ccc(F)cc3)ccc2O1
    . | -4 | 0.47 | -2
Cc1cc(C)n2nc(SCC(=O)Nc3cccc(C(F)(F)F)c3)nc2n1
    -0.9 | 34 | . | .
C[C@@H]1CN([C@@H](C)CO)C(=O)c2cc(NC(=O)NC3CCCCC3)ccc2O[C@H]1CN(C)S(=O)(=O)c1cn(C)cn1
    2.9 | -6 | -0.061 | .
COc1ccc(OC)c(S(=O)(=O)N(C)CC(=O)N2CCOCC2)c1
    2.9 | -11 | . | .
COc1ccc(NC(=O)Nc2cccc3c2O[C@H](CN(C)C)[C@@H](C)CN([C@@H](C)CO)C3=O)cc1
    1.8 | -53 | 0.073 | -26
CNC[C@@H]1Oc2c(NC(=O)Nc3ccccc3)cccc2C(=O)N([C@H](C)CO)C[C@H]1C
    . | -11 | -0.24 | 17
O=C(O)CCNC(=O)c1ccco1
    0.8 | 2 | 0.4 | .
Cc1noc(C)c1S(=O)(=O)Nc1cccc2c1O[C@H](CN(C)CC1CCCCC1)[C@H](C)CN([C@H](C)CO)C2=O
    2.3 | -6 | -0.36 | -4
COc1ccc(C[C@H](N)C(=O)N[C@@H]2[C@@H](CO)OC(n3cnc4c(N(C)C)ncnc43)[C@@H]2O)cc1 (stereo partly drawn)
    . | 106* | 0.076 | 93*
Cc1noc(C)c1NC(=O)Nc1ccc2c(c1)CC(=O)N([C@H](C)CO)C[C@@H](C)[C@H](CN(C)Cc1ccc3c(c1)OCO3)O2
    . | 3 | -0.21 | 10
C[C@@H]1CN([C@H](C)CO)C(=O)Cc2cc(NS(=O)(=O)c3cccs3)ccc2O[C@@H]1CN(C)Cc1ccccc1
    0.5 | -9 | 0.19 | 2
C[C@H]1CN([C@@H](C)CO)C(=O)c2cccc(NC(=O)Nc3ccc(F)cc3)c2O[C@H]1CN(C)S(=O)(=O)c1ccc(F)cc1
    0.8 | -6 | 0.58 | 83*
C[C@@H]1CN([C@H](C)CO)C(=O)c2cccc(NC(=O)Nc3ccc(F)cc3)c2O[C@H]1CN(C)Cc1ccc(C(=O)Nc2ccccc2N)cc1
    -2.8 | 11 | -0.63 | .
COc1cc(OC)c(C2=NOC(C(=O)Nc3cnn(C45CC6CC(CC(C6)C4)C5)c3)C2)cc1Cl (stereo not drawn)
    -1.4 | 40 | . | .
COc1ccc(C(=O)NCCCSc2nc(C(C)(C)C)cc(C(F)(F)F)n2)cc1
    -0.7 | 13 | . | .

Reformatted: results already given
> COc1ccc(/C=C2/C(=O)C(C(C)C)=CCC2C)cc1 (stereo not drawn)
  PD-1 reverse act: 1.0	MITF inh: -41	YB-1 expression: -0.019	Hedgehog inh: .

> CC(C)NC(=O)Nc1ccc2c(c1)CC(=O)N([C@@H](C)CO)C[C@H](C)[C@H](CN(C)C)O2
  PD-1 reverse act: 0.1	MITF inh: 13	YB-1 expression: -0.55	Hedgehog inh: -38

> CSc1ccccc1NC(=O)CN(c1ccc(Cl)cc1)S(C)(=O)=O
  PD-1 reverse act: 1.8	MITF inh: -12	YB-1 expression: .	Hedgehog inh: .

> O=c1c2ccccc2c(C=Nc2cccc(C(F)(F)F)c2)c(O)n1-c1ccccc1
  PD-1 reverse act: -0.5	MITF inh: -3	YB-1 expression: -0.12	Hedgehog inh: 4

New compounds follow:
Every second line gives: PD-1 reverse act | MITF inh | YB-1 expression | Hedgehog inh
C[C@H](CO)N1C[C@H](C)[C@H](CN(C)C(=O)NC2CCCCC2)Oc2c(NC(=O)C3CC3)cccc2C1=O
    1.0 | 1 | -0.66 | -12
COc1cccc(C2CC(=O)NC(SCC(=O)Nc3ccccc3Cl)=C2C#N)c1OC (stereo not drawn)
    2.9 | -15 | . | .
O=C(CSc1nnc(-c2ccccc2)n1-c1ccccc1)Nc1ccccc1C(F)(F)F
    1.1 | -2 | . | .
CC(C)c1cnc(NC(=O)Cc2ccccc2)s1
    3.3 | 8 | 0.13 | -10
CC(C)NC(=O)Nc1ccc2c(c1)CC(=O)N([C@H](C)CO)C[C@H](C)[C@H](CN(C)CC1CC1)O2
    . | -3 | 0.023 | .
CCOc1ccc(NC(=O)CSc2n[nH]c(-c3ccc(Cl)cc3)n2)cc1
    -3.0 | -4 | . | .
C[C@H]1CN([C@@H](C)CO)C(=O)Cc2cc(N(C)C)ccc2O[C@@H]1CN(C)S(=O)(=O)c1ccc(Cl)cc1
    . | 3 | -0.13 | .
Cc1ccc(-c2nnc(SCC(=O)Nc3ccc(Br)cc3C(C)C)o2)cc1
    0.1 | -6 | . | .
C[C@@H]1CN([C@@H](C)CO)C(=O)c2cc(NS(=O)(=O)c3ccccc3)ccc2O[C@H]1CN(C)CC1CC1
    . | -3 | -0.41 | 3
Cc1noc(C)c1NC(=O)N(C)C[C@H]1Oc2c(NC(=O)C3CCCCC3)cccc2C(=O)N([C@@H](C)CO)C[C@H]1C
    1.5 | -3 | -0.18 | 4
C[C@@H]1CCCCO[C@H](CN(C)C(=O)Nc2ccccc2)[C@@H](C)CN([C@H](C)CO)C(=O)c2cc(NC(=O)Nc3cccc4ccccc34)ccc2O1
    -1.2 | -10 | 0.55 | -8
C[C@H]1CN([C@@H](C)CO)C(=O)c2cc(NS(=O)(=O)c3cn(C)cn3)ccc2O[C@H]1CN(C)S(=O)(=O)c1ccccc1
    0.2 | 0 | -0.54 | .
C[C@H]1CN([C@@H](C)CO)C(=O)Cc2cc(NS(C)(=O)=O)ccc2O[C@H]1CN(C)S(C)(=O)=O
    -0.3 | -2 | 0.0037 | 24
COc1ccc(NC(=O)Nc2cccc3c2O[C@H](CN(C)S(=O)(=O)c2cccs2)[C@@H](C)CN([C@H](C)CO)C3=O)cc1
    -0.2 | 15 | -0.087 | .
